Screening data as filed in PubChem.
HSD17B inh = HSD17B dehydrogenase inhibition. Q99714. recombinant HSD17B10, NADH fluorescence kinetic; many of its hits are not listed in these tables. Potency, µM (titrated, usually from 57.1 µM), inactives show at the highest dose activity change, negative = inhibition, usual class: inhibitors. 75,000 tested, 7.6% active; active means well fitted inhibition curve with a large enough effect; inconclusive means small, poorly fitted or top-dose-only effect; inactive means no such curve, though single readings can be large or run the other way;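 further: the protocol describes HADH2 (HSD17B10) and not the HSD17B4 of the title; nearly all actives have a fitted effect of over 70% in size; most hits overshoot -100% by far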
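Enzyme plus compound, 15 min room temperature; substrate mix added (NAD+ 1 mM, beta-hydroxybutyryl-CoA 90 uM final); plates read kinetically for NADH fluorescence. HADH2 was His-tagged, E. coli-derived, 20 nM.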
Numbers without * were called inactive; ? = inconclusive; & = joins results of further samples; [ ] = another dose, or the depositor's remark. On the % scale 0 is the no-effect control and ±100 the full control effect; potency means the concentration at half of the fitted maximal effect. Only part of the results is shown. The share of hits here may be higher or lower than overall.

item	compound	HSD17B inh
1	COc1ccc(OC)c(CNC(=O)CCN2C(=O)COc3ccccc32)c1	-4%
2	COc1c(F)c(F)c(-c2csc(N)n2)c(F)c1F	-10%
3	CC(C)c1nc2oc3c(N4CCNCC4)ncnc3c2c2c1CCC2	-3%
4	O=C1c2ccccc2NC2(CCCCC2)N1c1ccc(O)cc1	?
5	C=CCN1C(=CCO)[C@H]2C[C@H]3[C@@H]1CC[C@@]31c3ccccc3N3C=C4[C@@H]5N(/C=C/2[C@H]31)c1ccccc1[C@]51CC[C@H]2[C@H]1C[C@@H]4/C(=C/CO)N2CC=C	2%[25.6 µM]
6	Cc1ccc(NC(=O)CN2C(=O)NC(Cc3ccccc3)C2=O)cc1 (centres undefined)	5%
7	O=C(Cn1cnc2ccccc2c1=O)NCCC(=O)N1CCN(c2ccccc2)CC1	9%
8	CC(C)(C)NC(=O)C(c1cccs1)N(CC1CCCO1)C(=O)Cn1nnc(-c2cccs2)n1 (centres undefined)	-2%

Among those listed so far, 2 contain sulfur.
item	compound	HSD17B inh
2	COc1c(F)c(F)c(-c2csc(N)n2)c(F)c1F	-10%
8	CC(C)(C)NC(=O)C(c1cccs1)N(CC1CCCO1)C(=O)Cn1nnc(-c2cccs2)n1 (centres undefined)	-2%

The list continues.
item	compound	HSD17B inh
9	COc1ccc2nc(NC(=O)Cn3cnc4c(=O)n(C)c(=O)n(C)c43)sc2c1	-16%
10	COC(=O)[C@@H]1O[C@@H](SCCN)[C@@H](O)[C@H](O)[C@H]1O	11%[11.4 µM]
11	CN1CC[C@@]2(CCCN(C(=O)c3cc(C(F)(F)F)cc(C(F)(F)F)c3)C2)C1	2%
12	COc1ccc(NC(=O)CSc2nnc(Cn3c(=O)sc4ccccc43)n2C)cc1OC	2%
13	Cc1cc(C)nc(NC2=NCCN2C(=O)NC2CCCCC2)n1	15%
14	COc1ccc(CN=CC2=C(O)CC(C)(C)CC2=O)cc1	0%
15	CC(C)C(OC(=O)c1cc2sccc2n1C)C(=O)NCC1CCCO1 (centres undefined)	-8%
16	O=C(O)CCS(=O)(=O)c1cccc2cccnc12	3%
17	Cc1cc2ccccc2nc1SCC(=O)N1CCCC1	16%
18	Cc1onc(-c2ccccc2)c1C(=O)NCCc1c[nH]c2ccccc12	4%
19	COC(=O)c1c(NC(=O)c2ccco2)sc(C(=O)N2CCCC2)c1C	-1%
20	CC(C)CC(=O)Nc1ccc(F)c(Cl)c1	5%
21	CC1(C)OC(=O)CC1C(=O)NCc1ccccc1 (centres undefined)	12%
22	C=CCn1c(SCC(=O)c2cccs2)nnc1-c1cccc(OC)c1	-10%
23	COC(=O)NC/C=C\c1nc(CCCO)co1	1%[11.4 µM]
24	CCOC(=O)C1CCN(C(=O)CSc2nnc(-c3ccco3)n2-c2ccccc2)CC1	2%
25	O=C(COc1ccccc1Br)NCc1ccco1	-15%
26	O=C(Nc1cnccn1)c1csc2ccccc12	-10%
27	O=C(OCC(=O)c1ccc[nH]1)c1ccc(S(=O)(=O)N2CCCCC2)cc1	4%
28	Cc1ccc(S(=O)(=O)c2nc(C)oc2NCc2ccccc2)cc1	-11%
29	Cc1ccc(S(=O)(=O)N2CCC(C(=O)N[C@@H](Cc3ccccc3)C(=O)O)CC2)cc1	5%
30	CCCC(=O)C1=C(SCC)CC(C)(C)C(C(=O)OC)C1=O (centres undefined)	-2%
31	Cc1cccc(-n2c(SCC(=O)Nc3ccc4c(c3)OCO4)nnc2-c2ccoc2C)c1	-20%
32	O=C(Nn1cnnc1)c1ccc(F)c(S(=O)(=O)N2CCCCC2)c1	-2%
33	Cc1cc(NC(=O)CSc2nc3c(c(=O)n2Cc2ccccc2)SC(C)C3)no1 (centres undefined)	?
34	O=C(Nn1c(-c2ccccc2)nc2ccccc2c1=O)C1CCC1	6%
35	COc1ccc(CCNC(=O)C2CC(=O)N(c3ccc(F)cc3)C2)cc1OC (centres undefined)	2%
36	COc1ccc(NC(=O)NCc2cccn2C)c(OC)c1	2%
37	N/C(=N/O)c1nc(N2CCCC2)nc(N(c2ccccc2)c2ccccc2)n1	0%
38	C=CCOc1ccccc1CN1CCSCC1	4%
39	Cc1ccc(S(=O)(=O)N[C@H]2COC(=O)[C@@H](Cc3ccccc3)NC(=O)[C@@H](C)COC(=O)C/C=C\[C@@H]2C)cc1	6%&3%[11.4 µM]
40	CC1CN(S(=O)(=O)c2ccc(-c3nc4ccccc4s3)cc2)CC(C)O1 (centres undefined)	7%
41	C=C1CC[C@@H]2O[C@@]2(C)CC[C@H]2[C@H]1CC2(C)C	-4%
42	O=C(NCCN1CCN(c2cccc(Cl)c2)CC1)C1CCCN(S(=O)(=O)c2cnc[nH]2)C1 (centres undefined)	-3%
43	CC(=O)c1cccc(NC(=O)c2ccc(S(=O)(=O)N3CCCCC3)cc2)c1	-5%
44	CC(C)(C)c1cn(-c2ccccc2)c(=S)[nH]1	-6%
45	Brc1ccc(C2=Nn3c(nnc3-c3n[nH]c4c3CCC4)SC2)cc1	2%
46	O=C(N1CCN(Cc2ccc3c(c2)OCO3)CC1)C12CC3CC(CC(C3)C1)C2	-7%
47	O=C(CCN1CCN(c2ccccc2)CC1)Nc1ccccc1F	6%
48	Cc1ccc(C(=O)O[C@@H](C(=O)O)[C@@H](OC(=O)c2ccc(C)cc2)C(=O)O)cc1 (tested in a mixture with another compound)	5%
49	O=C(COC(=O)c1ccccn1)c1ccc(Br)cc1	2%
50	COc1ccc(-c2noc(-c3cc(C)cc(C)c3)n2)cc1OC	4%
51	CCCC(=O)Nc1cc(Cl)ccc1N1CCN(C(=O)CC)CC1	7%
52	CC(Oc1ccc2oc(-c3ccccc3)c(C(=O)O)c2c1)C(=O)O (centres undefined)	25µM*
53	Cc1cccn2cc(CNC(=O)C3CCCCC3)nc12	32µM*
54	CCOc1ccc(OCC(=O)c2c(O)c3ccccc3oc2=O)cc1	16µM*
55	CC(C)N1C(=O)CCC1C(=O)N1CCCc2ccccc21 (centres undefined)	4%
56	COCCn1c(-c2ccccc2)nc(=S)c2c1CC(C)(C)OC2	-8%

Copied from the list.
HSD17B inh result of compound 49 reads 2%
HSD17B inh result of compound 52 reads 25µM*
HSD17B inh result of compound 54 reads 16µM*

Following part.
item	compound	HSD17B inh
57	CC1CCN(c2nc3c(c(=O)n(C)c(=O)n3C)n2CCSc2nc3ccccc3o2)CC1	-6%
58	NC(=O)CN1CCN(C(=O)NC2CCCCC2)CC1	3%
59	c1ccc(C(c2ccccc2)N2CCC3(CCNCC3)CC2)cc1	10%
60	Cn1cnnc1SC(C(=O)c1ccccc1)c1ccccc1 (centres undefined)	?
61	CCOC(=O)Cc1csc(SCC(=O)N2CCN(c3ccc(OC)cc3)CC2)n1	10%
62	COC(=O)c1cc(-c2ccccc2)n(CC(=O)O)c1C	-1%
63	COC(=O)c1ccc2c(=O)[nH]c(CN3c4ccccc4CC3C)nc2c1 (centres undefined)	?
64	O=C(OCC(=O)N1CCN(C(=O)COC(=O)c2ccncc2)CC1)c1ccncc1	-14%
65	Cc1csc(SCC(=O)NCc2cccs2)n1	1%
66	Cc1cc(NC(=O)CCCC(=O)Nc2ccc(F)cc2)no1	0%
67	COc1ccccc1N1CCN(CCn2c(=O)[nH]c3c([nH]c4ccccc43)c2=O)CC1	?
68	COC(=O)c1c(NC(=O)c2ccco2)sc(C(=O)Nc2ccc(F)cc2)c1C	?
69	O=C1NC(c2ccccn2)Nc2sc3c(c21)CCC3 (centres undefined)	?
70	CCOc1ccccc1CNS(=O)(=O)c1ccc2c(c1)oc(=O)n2C	4%
71	CCOc1ccc(-c2cc(C(=O)N/N=C/c3ccc(O)c(OC)c3)[nH]n2)cc1	10%
72	CCCC(=O)Nc1ccc(-c2nc3cc(C)c(C)cc3o2)c(O)c1	16µM*
73	Cc1cc(=O)n2c3c(cccc13)CCC2	?
74	CCn1c(SCC(=O)c2c(N)n(C)c(=O)n(C)c2=O)nc2sc(C)c(C)c2c1=O	-9%
75	C=CCCCCCC	-2%
76	C[C@@]12CC[C@@H]3[C@H](CCC4=CC(=O)CC[C@]43C)[C@@H]1CC[C@@H]2C(=O)Cn1cnc2c(=S)nc[nH]c21	3%[11.4 µM]
77	CCOC(=O)N1CCN(C(=O)CSc2ccc(Cl)cc2)CC1	-3%
78	CCN(C1CCCCC1)S(=O)(=O)c1cn(C)c(=O)n(C)c1=O	?
79	CCc1cc2c(SCC(=O)C(C#N)=C3N(C)c4ccccc4N3C)ncnc2s1	?
80	Cc1cccc(CNc2cc(-c3cccc(NS(C)(=O)=O)c3)ncn2)c1	?
81	COc1ncc2nc(-c3cc(F)cc(F)c3)c(=O)n(C)c2n1	-3%
82	CCOc1ccc(NC(=O)CSc2nnc(-c3ccco3)n2C)cc1	11%
83	COc1ccc(-n2c(C)nc3cc(C(=O)NCc4ccco4)ccc32)cc1	?
84	CC(NC(=O)c1ccc2c(c1)OCO2)C1CCCO1 (centres undefined)	17%
85	CCOC(=O)c1[nH]c2ccccc2c1NC(=O)c1ccco1	-8%
86	Cc1cccc(-n2ccnc2SCC(=O)Nc2cc(C)on2)c1	3%
87	Cc1ccc(C(=O)N2CCN(c3cccc(Cl)c3)CC2)cc1C	-11%
88	O=C1C2=C(SCCS2)C(=O)N1CCCO	3%
89	CCCOc1c(OC)cccc1C1CC(=O)Nc2cc3c(cc21)OCO3 (centres undefined)	-22%
90	COc1ccc(NC(=O)CNS(=O)(=O)c2cccs2)cc1	10%
91	CCN(CC)C(=O)N1CCN(C)CC1	2%
92	Cc1oc2cc3c(C(=O)N4CCN(C)CC4)c(C)oc3cc2c1C(=O)N1CCN(C)CC1	0%
93	COc1cc2nncc(SCc3ccc(Cl)c(Cl)c3)c2cc1OC	-5%[11.4 µM]
94	Nc1nc(NC(=O)c2cccc(S(=O)(=O)N3CCCCCC3)c2)nc(-c2ccccc2)n1	3%
95	O=c1c2[nH]c3ccc(F)cc3c2ncn1C1CCCCC1	32µM*
96	CCOC(=O)c1csc(NC(=O)c2ccc(S(=O)(=O)N(CC)CC)cc2)n1	3%&-24%
97	Cc1cc(NC(=O)CSc2nnc(COc3cccc(C)c3C)n2C)no1	5%
98	COc1ccc(NC(=O)Cc2nnc(SCC(=O)Nc3cc(C)ccc3OC)n2C)cc1	4%
99	COc1cccc(/C=N/n2c(SC)nnc2-c2ccccc2)c1OC	-24%
100	CCN1CCN(c2c(Cl)cccc2NC(=O)c2ccco2)CC1	-3%
101	Cc1ccc(NC(=O)Cn2nc(C)c3ccccc3c2=O)c(C)c1	0%
102	COCCn1c(SCC(=O)Nc2ncc(C)s2)nc2sc3c(c2c1=O)CCC3	-18%
103	COC(=O)CCc1c(C)nn(-c2ccccc2)c1C	-3%
104	O=C(Nc1ccc(Cl)cc1)NC1CCCC1Cc1ccco1 (centres undefined)	-17%
105	CN(C(=O)C1CCCO1)c1nnc(-c2cnccn2)s1 (centres undefined)	-7%
106	CCc1[nH]nc2c1C(C(C)C)C(C#N)=C(N)O2 (centres undefined)	-7%
107	Cc1cc(CNC(=O)[C@H]2C[C@@H]2[C@H](NP(=O)(c2ccccc2)c2ccccc2)c2ccccc2)nn1C	-4%
108	COc1ccc2nc(NC(=O)CSc3nnc(-c4ccoc4C)n3C)sc2c1	-4%
109	Cc1c(O)c(Br)c(C)c(O)c1Br (tested in a mixture with another compound)	0.79µM*
110	O=[n+]1cc(-c2ccc(F)cc2)n([O-])c2c1CCC2	15%
111	CN(C)Cc1ccccc1-c1nc(NCc2ccccc2)c2ccccc2n1	-9%
112	Cc1noc(C)c1C(=O)OCC(=O)c1cc(C)n(Cc2ccccc2Cl)c1C	9%

Further compounds.
item	compound	HSD17B inh
113	Cc1ccc(S(=O)(=O)Nc2ccc3ncccc3c2)cc1	-7%
114	Nc1nnc(CCCCc2cccs2)o1	5%
115	CC(=O)c1ccc(NC(=O)c2ccn[nH]2)cc1	3%
116	C=CCn1cc(C(=O)NCC2CCCO2)c(=O)c2cc(S(=O)(=O)N3CCCCCC3)ccc21 (centres undefined)	-10%
117	NC(=O)CCS(=O)(=O)c1ccccc1	6%
118	O=C(COC(=O)C1CCCN1S(=O)(=O)c1ccc(Cl)cc1)Nc1ccc2c(c1)OCO2 (centres undefined)	-4%
119	Cn1cccc1C(=O)N1CCC2(CC1)CCN(C(c1ccccc1)c1ccccc1)CC2	-11%
120	CC(=O)C1=C(O)C(=O)N(Cc2ccco2)C1c1ccc2c(c1)OCO2 (centres undefined)	-16%
121	Cc1nc2ccccc2c(=O)n1NC(=O)c1c(O)c2ccccc2n(C)c1=O	0%
122	c1ccc(-c2[nH]ncc2-c2nc3ccccc3[nH]2)cc1	13µM*
123	NC(=O)CSc1nc(-c2ccccc2Cl)ns1	5%
124	O=C(O)c1ccc(-c2ccccc2C(F)(F)F)o1	2%
125	CCNC(=O)NC(=O)COc1ccccc1C#N	-15%
126	CCC(C)n1cnc2c(c1=O)c1nc3ccccc3nc1n2Cc1ccc2c(c1)OCO2 (centres undefined)	-12%
127	CCc1ccccc1NC(=O)CSc1nnc([C@@H]2CCCN2C(=O)OC(C)(C)C)o1	2%
128	O=C(CSc1nc2ccccc2c(=O)[nH]1)N1CCCCCC1	-5%
129	Cc1csc(=N)n1-c1ccc(Cl)cc1	-3%
130	Cc1cc(NC(=O)c2cc(-c3cccs3)on2)no1	-16%
131	COC(=O)c1cc(NC(=O)CSc2nc(C)cc(=O)[nH]2)cc(C(=O)OC)c1	3%
132	CCOC(=O)c1ccccc1NC(=O)c1cccc2c1C(=O)N(C1CCN(C(=O)OCC)CC1)C2	-10%
133	Cc1cc(N2CCOCC2)nc(SCC(=O)c2ccc(Cl)cc2)n1	-8%
134	CCC1=C2CC[C@H]3C(=O)NC(=O)[C@H]3[C@H]2[C@@]2(Cc3ccccc3)C(=NCc3ccccc3)OC(=O)N2C1=O	5%
135	CC(=O)c1cccc(NC(=O)c2oc(C)nc2C)c1	1%
